Source: PubChem BioAssay (National Center for Advancing Translational Sciences (NCATS))
gsp ag – gsp mutant agonism. gsp mutant cells, cAMP HTRF, 30 min; control for the full effect not named in the record. 0.13% of 340,000 active. Potency, µM (titrated, usually from 76.9 µM), inactives show top-dose activation (cAMP increase), usual class: activators; active = well fitted activation curve with a large enough effect; inconclusive = small, poorly fitted or top-dose-only effect, or another doubt; inactive = no such curve, though single readings can be large or run the other way; cell line not stated here;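 further: phosphodiesterase inhibitor Ro 20-1724 added with compounds to block cAMP breakdown; potency means the concentration at half of the fitted maximal effect; nearly all actives have a fitted effect of over 60% in size; about a fifth of the inactives were tested at one dose only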
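Cells in DMEM/10% FBS with G418 were pretreated with compounds in DMSO plus […] (300 uM stock) for 30 min at 37C. cAMP was measured by HTRF (cAMP-d2 plus anti-cAMP antibody-K) after 30 min at room temperature.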
CtBP-E1A blk – blocks the CtBP interaction with E1A; AlphaScreen GST-E1A/His-CtBP binding, 1536-well; active compounds read low; control for the full effect not named in the record; activity change, % (test concentration not listed); 0.49% of 340,000 active; AID 651724; in the data active means activity change below about -65%; inconclusive means about -30% to -65%; inactive means above about -30%; further: on the % scale 0 is the no-effect control and ±100 the full control effect
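AlphaScreen with 125 nM GST-E1A and 125 nM His-CtBP (5X stocks) in Tris pH 8.0, 300 mM NaCl, BSA, Tween 20, TCEP. Compounds preincubated 2 h at 37 deg C, then glutathione donor/nickel acceptor beads added for 1 h at 37 deg C in dark.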
D2 potentiator – potentiates the human D2 dopamine receptor allosterically | P14416 | DiscoveRx D2 beta-arrestin cells, luminescence, 90 min; 100% = 57 uM dopamine signal | potentiation, % (no concentration beside the values) | 0.23% of 360,000 active | AID 624464; active = potentiation of 50% or more; inconclusive = 30% to 50%; inactive = 30% or less;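 further: compound concentration not given in the record; tested on top of an EC20 dose of dopamine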
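D2 cells co-treated with compound plus 50 nM dopamine (EC20) for 90 min at 37 deg C to detect potentiation. Beta-arrestin recruitment was read as enzyme-fragment luminescence after 1 h at ambient temperature. Full response was set by 57 uM dopamine.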
D2 ag – agonists of human D2 dopamine receptor (beta-arrestin). P14416. DiscoveRx PathHunter D2 beta-arrestin, luminescence, 90 min; 100% = 57 uM dopamine signal. activation, % (test concentration not listed). 0.084% of 360,000 active. AID 624465; in the data active = activation above about 40%; inconclusive = about 15% to 40%; inactive = below about 15%; further: compound concentration not given in the record; the text of the record calls up to 30% inactive
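Agonist mode: compounds alone added to overnight-plated D2 PathHunter cells for 90 min at 37 C, with 57 uM final dopamine (EC100) defining full response. Beta-arrestin recruitment detected by chemiluminescent reagent, read after 1 h at ambient temperature.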
Six1-Eya2 blk – Six1/Eya2 interaction inhibition | Q15475+O00167 | AlphaScreen GST-Six1/His-Eya2 binding, biochemical; active compounds read low; control for the full effect not named in the record | activity change, % (no concentration beside the values) | 0.56% of 360,000 active | AID 651725; in the data active = activity change below about -65%; inconclusive = about -30% to -65%; inactive = above about -30%; further: on the % scale 0 is the no-effect control and ±100 the full control effect
Target sequence (O00167 whole entry, looked up): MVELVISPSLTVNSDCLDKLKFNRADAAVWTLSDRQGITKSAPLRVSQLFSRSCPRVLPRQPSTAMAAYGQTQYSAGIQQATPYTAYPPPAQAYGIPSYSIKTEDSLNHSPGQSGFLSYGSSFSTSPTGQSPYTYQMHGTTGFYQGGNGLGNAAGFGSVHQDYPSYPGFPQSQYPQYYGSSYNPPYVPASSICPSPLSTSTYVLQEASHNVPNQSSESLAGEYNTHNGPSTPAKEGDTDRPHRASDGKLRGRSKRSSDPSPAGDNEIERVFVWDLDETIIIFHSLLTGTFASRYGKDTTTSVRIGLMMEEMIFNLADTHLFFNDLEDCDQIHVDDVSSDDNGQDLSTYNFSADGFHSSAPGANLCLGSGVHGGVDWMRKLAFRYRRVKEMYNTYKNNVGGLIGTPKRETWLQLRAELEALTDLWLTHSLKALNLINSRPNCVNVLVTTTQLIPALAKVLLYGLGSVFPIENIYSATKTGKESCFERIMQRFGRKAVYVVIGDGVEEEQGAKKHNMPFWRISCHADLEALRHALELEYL
Target sequence (Q15475 whole entry, looked up): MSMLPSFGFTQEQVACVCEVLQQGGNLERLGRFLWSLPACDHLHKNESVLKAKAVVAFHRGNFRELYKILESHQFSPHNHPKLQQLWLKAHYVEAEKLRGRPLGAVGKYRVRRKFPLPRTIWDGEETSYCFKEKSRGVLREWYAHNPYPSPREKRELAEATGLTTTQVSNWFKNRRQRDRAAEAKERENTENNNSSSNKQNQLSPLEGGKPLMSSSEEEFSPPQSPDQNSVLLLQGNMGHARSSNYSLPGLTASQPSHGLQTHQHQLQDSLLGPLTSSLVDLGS
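AlphaScreen luminescence read after one hour at 37 °C in darkness. Pin-transferred compounds met GST-Six1 and His-Eya2 protein (5X stock 250 nM/500 nM) plus glutathione donor and Ni-chelate acceptor beads (5X, 50 ug/mL).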
gsp antag – antagonists of gsp mutant (McCune-Albright syndrome); gsp-mutant cells, cAMP HTRF, 30 min; control for the full effect not named in the record; Potency, µM (titrated, usually from 76.9 µM), for the others: at the top dose activity change, negative = inhibition, most hits filed as inhibitors; 0.4% of 340,000 active; AID 624288; active = falling curve of any shape with a large fitted effect; inconclusive = falling curve, mostly with a smaller effect; inactive = flat or rising curve; cell line not stated here;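 further: intracellular cAMP measured with PDE inhibitor Ro 20-1724 present during compound exposure; potency means the concentration at half of the fitted maximal effect; on the % scale 0 is the no-effect control and ±100 the full control effect; nearly all actives have a fitted effect of over 65% in size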
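HTRF cAMP measurement after 30 min RT detection following 30 min, 37C compound treatment alongside […] (added as 300 uM solution) in G418-selected cells seeded at 2000/well and grown 16–24 h.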
Active calls of the source: *; ? = inconclusive; . = no result given; [ ] = dose if it differs, or a comment.

Below each compound: gsp antag	D2 ag	Six1-Eya2 blk	gsp ag	CtBP-E1A blk	D2 potentiator
COc1cccc(-c2cnc3c(NC=O)cc(-c4cccc(NC(C)=O)c4)cn23)c1
    .	5.1	-25	.	-30	19
NC(=O)c1cc(-c2csc(NCCc3ccccc3)n2)ccc1O
    0%	-4.8	-8	-36%[15.4 µM]	-17	-10
COc1ccc(CCNC(=O)CN(c2cc(OC)ccc2OC)S(=O)(=O)c2ccccc2)cc1
    ?	3.2	-8	0%[15.4 µM]	5	2
Cc1nn(C(C)C)c(C)c1[C@@H]1C[C@H]2CN(Cc3cccc(Cl)c3)C(=O)[C@]23CCCN13
    -6%	1.9	1	-10%[15.4 µM]	4	-2
OC1(c2ccccn2)COc2ccccc2O1 (stereo not drawn)
    3%	0.4	0	-7%[15.4 µM]	-5	2
COc1cccc(C(=O)NC2CC3CCCC(C2)N3CC(=O)Nc2ccccc2)c1 (stereo not drawn)
    -5%	-1.5	-3	-26%	1	-39
Cc1ccc(NCC(=O)N/N=C/c2ccncc2)cc1
    -4%	-0.8	0	0%[15.4 µM]	-3	-2
O=C(COC(=O)CSc1ccc2ccccc2c1)Nc1ccccc1OC(F)F
    4%	-5.2	0	7%[15.4 µM]	-21	-5
CC(C)C(=O)N1CCN(c2ccccc2NC(=O)c2ccco2)CC1
    -23%	-2.2	-4	6%[15.4 µM]	-1	-4
CS(=O)(=O)N1CCCC(C(=O)Nc2ccc3c(c2)OCCO3)C1 (stereo not drawn)
    0%	2.3	10	-3%	2	-4
O=C(COC(=O)c1cccnc1Cl)NCC1CCCO1 (stereo not drawn)
    8%	-0.2	1	17%[15.4 µM]	1	-5
CC(C)CC1NC(=O)N(CC(=O)Nc2ccc(OC(F)F)cc2)C1=O (stereo not drawn)
    6%	1.4	16	1%[15.4 µM]	-19	4
Cc1cccc(Cn2c(C)nc3c(N)c(C)c(C)cc32)c1
    7%	-15	-11	-2%[15.4 µM]	.	-9
CC(=O)C12CCCCC1CC1[C@@H]3CC(C)C4=CC(=O)CC[C@]4(C)C3CC[C@@]12C (stereo partly drawn)
    4%	6.7	-1	15%	-19	2
Cc1cc2c(c(=O)n1Cc1ccco1)C(c1ccccc1)C(C#N)=C(N)O2 (stereo not drawn)
    -14%	-4.1	0	16%	-3	-8
CCOC(=O)C(=CNc1ccccc1N1CCOCC1)C(=O)OCC
    -19%	5.8	4	-16%[15.4 µM]	-8	2
CC1(C(=O)Nc2ccc3c(c2)OCO3)Cc2c(-c3ccccc3)ccnc2O1 (stereo not drawn)
    .	-4.3	6	.	0	-6
O=C(NCc1ccccc1)C1CCCN(S(=O)(=O)c2cccc3nsnc23)C1 (stereo not drawn)
    4%	3.8	2	0%	.	2
Cc1cccc(C)c1C(OCCN(C)C)C1CCCCC1 (stereo not drawn)
    20%	-2.1	-7	-35%[inhibitor]	-6	-35
O=C(Nc1cccc(S(=O)(=O)N2CCOCC2)c1)C1CC(=O)N(c2ccc3c(c2)OCCO3)C1 (stereo not drawn)
    -12%	-2.5	-2	?	.	-4

Other results follow.
Below each compound: gsp antag	D2 ag	Six1-Eya2 blk	gsp ag	CtBP-E1A blk	D2 potentiator
COc1ccc(OC)c(NC(=S)NN2CCN(C)CC2)c1
    -3%	-1.7	1	?	5	1
Cc1cc2c(c(=O)n1C)C(C(C)C)C(C#N)=C(N)O2 (stereo not drawn)
    1%	-2.1	3	?	-2	-15
Cc1nc2cc(NC(=O)Nc3nccs3)ccc2n1C
    5%	0.0	0	22%	4	-20
COc1ccc(-c2nc3ccc(C(=O)NCC(OC)OC)cc3nc2-c2ccc(OC)cc2)cc1
    -24%	6.2	17	13%[15.4 µM]	2	5
COc1cc(S(=O)(=O)NC2CCCC2)c(OC)cc1Cl
    -5%	-0.3	0	14%	3	3
Nc1nc(-c2cccnc2)nn1C(=O)COc1ccccc1
    4%	3.2	-1	-4%	-2	-4
Cc1cccn2c(CN(C)CC3Cc4ccccc4O3)c(C(=O)N3CCCCC3)nc12 (stereo not drawn)
    7%	-5.1	-2	5%	3	-6
Cc1cc2c(SCC(=O)N3CCN(c4ccccc4)CC3)ncnc2s1
    -4%	-4.6	0	?	5	-11
Cc1cc2cc(C(c3nnnn3C(C)(C)C)N(Cc3ccco3)CC3CCCO3)c(=O)[nH]c2cc1C (stereo not drawn)
    -16%	-1.2	-1	?	3	-10
Cc1ccc(C)c(SCC(=O)OCC(=O)NCCNC(=O)COC(=O)CSc2cc(C)ccc2C)c1
    -5%	-1.0	3	-52%[15.4 µM]	-3	-6
COC(C(=O)Nc1ccnn1C1CCN(Cc2ccc(CO)o2)CC1)c1ccccc1 (stereo not drawn)
    8%	-2.1	4	-16%	9	-14
COc1ccc(NC(=O)Cn2cccc2)cc1Cl
    3%	-3.6	-5	-5%	0	-9
COc1ccc2c(c1)[C@H]1[C@H](CO2)[C@H](c2ccccc2)[C@]2(C)C(=O)Nc3cc(Cl)ccc3C(=O)N12
    -8%	4.1	-18	.	-2	-44
Cc1ccccc1-n1c(C)cc(/C=C2\NC(=O)NC2=O)c1C
    0%	-3.0	-12	-31%[inhibitor]	-26	-2
O=C(NCCc1c[nH]c2ccc(Cl)cc12)c1cccnc1
    -15%	0.3	17	-10%	45	-1
COc1ccc(-c2csc(N(CCCN(C)C)C(=O)c3ccc(C)cc3)n2)cc1
    10%	-0.5	-24	1%	-24	-13
C=C(C)CSc1nnc2n(N)c(=O)c3ccccc3n12
    9%	2.2	3	?	2	2
CN(C)CCN1CCc2ccccc21
    1%	-6.7	-11	-32%	-5	-26
COc1cc(C)ccc1S(=O)(=O)N1CCCCCC1
    -18%	0.4	11	-4%	9	-1
CCOc1ccc(N(CC(=O)NCCc2ccc(Cl)cc2)S(=O)(=O)c2c(C)[nH]c(=O)[nH]c2=O)cc1
    -7%	1.2	-3	17%	-5	-2

Additional results.
Below each compound: gsp antag	D2 ag	Six1-Eya2 blk	gsp ag	CtBP-E1A blk	D2 potentiator
COc1cc(C(=O)NC(=S)Nc2ccc3ccccc3c2)cc(OC)c1OC
    .	-4.3	-8	19%	-2	-16
COc1cccc(-n2cc(C(=O)O)c3ccccc3c2=O)c1
    10%	1.0	17	1%	78	-11
CCOC(=O)c1c(NC(=O)CSc2ncnc3[nH]ncc23)sc2c1CCC(C)C2 (stereo not drawn)
    -8%	-0.9	2	-20%	0	15
Cc1c2cnccc2c(C)c2c1oc1ccccc12
    -6%	1.6	12	22%	15	-15
Cc1ccc(Nc2nc(N)nc(CSCCO)n2)cc1
    16%	-3.6	-1	-3%	2	9
Cc1ccc(SCC(=O)NC(C)c2ccccc2)cc1 (stereo not drawn)
    -2%	-0.4	5	-1%[15.4 µM]	-1	-5
O=C(CSc1ncnc2c1cnn2-c1ccc(Cl)cc1)NCc1ccc2c(c1)OCO2
    27%	-2.4	5	-2%[15.4 µM]	-1	9
Brc1nnc2n1-c1ccccc1Sc1ccccc1-2
    ?	-4.4	0	0%	1	-18
Cc1ccc2c(c1)C1C[N+](C)(CC(=O)c3ccccc3)CCC1N2C(=O)c1ccccc1Cl (stereo not drawn)
    -4%	-3.9	8	-2%[15.4 µM]	3	-19
CCCCNC(=S)NNC(=O)c1ccc2c(c1)OCO2
    3%	-3.8	8	-38%	11	-5
CC(NC(=O)c1c(O)c2ccccc2[nH]c1=O)c1ccccc1 (stereo not drawn)
    13%	-5.4	1	-12%[15.4 µM]	9	-7
Nc1nonc1C(=O)N1CCCCC1
    .	-2.0	13	6%[15.4 µM]	-10	5
COc1ccc(CC(=O)c2ccc(OC)c(OC)c2C)cc1OC
    -14%	9.1	2	-71%[inhibitor]	0	-6
COc1ccc(CNc2nc(NCc3ccc(OC)cc3)c3ncn(C4CCCC4)c3n2)cc1
    12%	-1.3	?	.	-5	-42
O=C(OCCOc1cccc(Cl)c1)c1ccc(F)c(S(=O)(=O)N2CCOCC2)c1
    -18%	1.5	5	?	11	4
CCOc1ccc2ccccc2c1/C=N/NC(=O)c1ccncc1
    -10%	-1.8	9	-27%	.	-34
CCc1ccc(N2C(=O)CN(Cc3ccccc3)C2=S)cc1
    -4%	-1.4	8	-16%	2	9
CC(C)COC(=O)N1CCCCC1c1cc(C(=O)NCc2cccnc2)no1 (stereo not drawn)
    .	-1.6	-1	.	2	-2
COC(=O)c1cc2c(cc1NC(=O)CSCCc1ccccn1)OCO2
    3%	0.8	-4	-53%[inhibitor]	0	0
CCN(CC)C(=O)c1c(C)nc2ccccn12
    3%	-0.4	8	10%	0	-6

A second format for some results above.
molecule	gsp antag	D2 ag	Six1-Eya2 blk	gsp ag	CtBP-E1A blk	D2 potentiator
Brc1nnc2n1-c1ccccc1Sc1ccccc1-2	?	-4.4	0	0%	1	-18
COc1cccc(-n2cc(C(=O)O)c3ccccc3c2=O)c1	10%	1.0	17	1%	78	-11
CCN(CC)C(=O)c1c(C)nc2ccccn12	3%	-0.4	8	10%	0	-6

The list goes on:
Below each compound: gsp antag	D2 ag	Six1-Eya2 blk	gsp ag	CtBP-E1A blk	D2 potentiator
Cc1ccc(NS(=O)(=O)c2cc(C(=O)NCc3ccccn3)ccc2Cl)cc1C
    -13%	-1.6	-1	-23%	7	6
OCCC1CN(Cc2ccccc2O)CCN1CCc1ccccc1 (stereo not drawn)
    -4%	-6.8	0	-3%[15.4 µM]	1	-17
Cc1ccc2c(c1)sc1nc(=O)n(-c3ccc(Cl)cc3)c(=O)n12
    11%	-1.6	6	13%	1	-1
Cc1nnc(N(C)C(=O)Cc2ccc3c(c2)OCO3)s1
    8%	-3.9	-1	-13%	-1	1
COc1ccc(-c2nc(-c3cccc(C)c3)[nH]c(=O)c2C#N)cc1
    -31%	-0.1	0	-20%	-1	-12
O=c1c2ccccc2n(Cc2ccc(Cl)cc2)c(=O)n1Cc1ccco1
    -17%[15.4 µM]	-1.4	-2	-39%[inhibitor]	2	2
C1CCC2(CC1)OCC1(CO2)COC2(CCCCC2)OC1
    13%	-0.8	5	6%	-6	-11
O=C(CSc1nnc(-c2ccco2)o1)c1ccc([N+](=O)[O-])cc1
    -1%	7.1	2	11%	.	16
CCOC(=O)c1c(C)[nH]c(C(=O)OCC(=O)Nc2ccc(OCC)cc2)c1C
    5%	3.3	1	35%	6	-5
N#Cc1c(Cn2cncn2)nc(=O)n(-c2ccc(Cl)cc2)c1N
    -5%	-0.5	38	-32%[inhibitor]	1	1
COc1ccccc1S(=O)(=O)N(C)C[C@H]1OCc2cn(nn2)CCCC(=O)N([C@H](C)CO)C[C@@H]1C
    .	0.9	0	2%	1	.
CC(C)=CCSc1nnc(CCNC(=O)OC(C)(C)C)o1
    -5%	-0.3	3	-5%	10	-5
OC[C@@H]1CN(Cc2cccs2)C[C@H](n2cnc3c(NC4CCCC4)ncnc32)O1
    .	-3.4	7	.	2	-5
